High-throughput results (PubChem BioAssay)
Rce1 inhib: inhibitors of yeast Ras-converting enzyme. 0.27% of 290,000 active. calls only. yeast membranes, quenched prenylated peptide cleavage fluorescence. Q03530;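 active means fall in fluorescence gain of 50% or more versus controls, with final raw signal at or below 3038400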;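 further: plate controls were neutral control wells for no effect and wells lacking membranes for full effect; tested at 10 µM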
HIV Env fusion: blocks HIV Env-driven cell-cell fusion; HeLa-JRFL Env/CEM21 cell fusion, luciferase; inhibition, % at 12.3 µM; 1.1% of 360,000 active; AID 651610;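 active means mean replicate inhibition score of at least 50 and every replicate individually at or above 50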;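 further: 0% = plate neutral controls and 100% = maraviroc near 300 nM; one replicate is shown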
CSC inhib: cancer stem cell inhibition. cancer stem cell-like cells viability, luminescence. inhibition, % at 7.5 µM. 1.1% of 300,000 active. AID 2717;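 active means mean at 75% or more and at least half the replicates too; tested in HMLE shEcad cells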;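 further: 0% = median of negative and 100% = median of positive control wells; the first replicate is given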
Yeast UUG start: modulators of start codon recognition fidelity in yeast. S. cerevisiae UUG-firefly luciferase reporter, luminescence/redox ratio. activity score, % at 18.7 µM. 0.13% of 350,000 active. AID 602363;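 active means replicate mean at a twofold rise or more, about +100% in these data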;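 further: firefly luciferase made from a UUG start codon reports start codon fidelity; reporter light over untreated wells divided by growth signal over untreated wells; some hits fall short of that in this replicate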
eIF4H inh: inhibitors of RNA binding by human eIF4H; Q15056; eIF4H fluorescence polarization binding assay; inhibition, % at 35 µM; 0.94% of 290,000 active;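 active means 50% or more with normal probe brightness, or confirmed in later tests; about a fifth of its hits are not listed in these tables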;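 further: calls also rest on retests at 20 µM and on dose response follow-up; 0% = protein and probe with vehicle and 100% = probe without protein; strong numbers were not always called active; many hits fall short of the cut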
PABP FP inh: PABP-poly(A) binding inhibition. P11940. PABP-poly(A) RNA binding, fluorescence polarization. inhibition, % at 35 µM. 1% of 290,000 active. AID 2014;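 active means 50% or more with normal probe brightness, or confirmed in later tests; about a fifth of its hits are not listed in these tables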;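 further: calls also rest on retests at 20 µM and on dose response follow-up; controls were probe without protein and protein plus probe with vehicle; some compounds called inactive have numbers as strong as hits; many hits fall short of the cut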
Target sequence (P11940 whole entry, looked up): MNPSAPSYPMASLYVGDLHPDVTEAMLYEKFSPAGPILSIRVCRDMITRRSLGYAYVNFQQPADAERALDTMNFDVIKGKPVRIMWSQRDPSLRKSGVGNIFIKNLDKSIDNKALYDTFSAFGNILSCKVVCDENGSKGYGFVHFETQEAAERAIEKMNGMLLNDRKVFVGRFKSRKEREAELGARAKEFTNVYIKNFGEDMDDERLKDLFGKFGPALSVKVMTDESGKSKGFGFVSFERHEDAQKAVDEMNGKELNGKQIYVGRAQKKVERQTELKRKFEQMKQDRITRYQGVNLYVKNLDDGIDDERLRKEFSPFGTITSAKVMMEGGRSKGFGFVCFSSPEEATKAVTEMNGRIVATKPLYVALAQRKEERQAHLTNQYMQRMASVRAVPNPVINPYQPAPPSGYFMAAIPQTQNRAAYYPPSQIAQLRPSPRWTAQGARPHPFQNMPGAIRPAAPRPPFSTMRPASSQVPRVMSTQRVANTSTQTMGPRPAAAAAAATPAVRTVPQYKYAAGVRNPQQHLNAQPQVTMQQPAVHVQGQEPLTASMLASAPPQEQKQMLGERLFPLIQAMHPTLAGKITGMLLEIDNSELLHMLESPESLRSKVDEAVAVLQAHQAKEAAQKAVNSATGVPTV
MT1-MMP act inh: inhibitors of human MT1-MMP activation; P50281; HT1080 RFP-PRO-GFP cells, GFP/RFP ratio fluorescence, overnight; percent of plate control window, DMSO zero; GFP/RFP ratio change, % at 20 µM; 0.061% of 360,000 active;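 active means GFP/RFP ratio change of at least 30% with cell ATP level not reduced by more than half and red fluorescence within 50% of control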; further: strong numbers were not always called active
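Assay system: HT1080 RFP-PRO-GFP cells | Dosing: 20 µM single dose, 1% DMSO | Incubation: Cells overnight before dosing, compound overnight, 37 °C, 5% CO2 | Evaluation: GFP/RFP fluorescence ratio | Control set: DMSO-only wells and HT1080 RFP-L50D-GFP cell wells as references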
MT1-MMP act inh RFP: further read-out of MT1-MMP act inh, marked with its call; RFP signal change, %; measured here: RFP expression control read;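 0 = vehicle wells; hits needed this value within 50% of zero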
* hit, by the source's call; i = inactive; / = no result given. An excerpt; the hit share may differ from the screen's.

Molecule	Rce1 inhib	HIV Env fusion	CSC inhib	Yeast UUG start	eIF4H inh	PABP FP inh	MT1-MMP act inh	MT1-MMP act inh RFP
CCS(=O)(=O)N1CCN(c2ccc(C(=O)N3CCOCC3)cc2[N+](=O)[O-])CC1	i	3	-6	-14	0	1	-3	-1
COc1ccc(Br)cc1/C=N/n1c(COc2ccccc2)n[nH]c1=S	i	-17	/	-16	4	9	1	1
CCC(c1c(C)[nH]oc1=O)c1c(C)[nH]oc1=O	i	/	-9	-16	-7	2	-14	9
CCC(Sc1ccc2nnc(-c3ccc(OC)c(OC)c3)n2n1)C(=O)O (configuration not stated)	i	/	-11	-10	-1	-1	8	5
CC1CC(NS(=O)(=O)c2cccs2)CC(C)(C)C1 (configuration not stated)	i	/	13	-5	-1	-6	2	0
CC1(C)Cc2c(cnn2-c2ccc(F)cc2)C(NC(=O)CCn2cncn2)C1 (configuration not stated)	i	-54	1	0	-4	-5	-2	2
O=C(CNC(=O)c1ccc(Br)cc1)NCc1cccnc1	/	7	-15	-14	1	0	1	7
COc1ccccc1CNCC(O)Cn1c2ccccc2c2ccccc21 (configuration not stated)	/	-95	64	/	-2	10	-14	-11
O=C(Nc1ccc(S(=O)(=O)Nc2cnc3ccccc3n2)cc1)c1ccc([N+](=O)[O-])cc1Cl	i	-26	-6	-15	-3	0	10	-7
COc1ccc2c(c1)CSC(c1ccccc1)C2=O (configuration not stated)	/	-16	/	-13	/	/	-5	1
COc1ccc(OC)c(S(=O)(=O)Nc2ccccc2F)c1	i	/	-2	-7	-8	-4	-5	5
O=C(COc1ccc2ccccc2c1)Nc1ccccc1C(=O)O	i	-10	24	-11	6	14	0	3
O=S(=O)(c1cccc(NC(=S)N2CCN(c3ccc(F)cc3)CC2)c1)C(F)F	/	31	2	/	-4	-12	6	-7
O=C(Nc1ccccc1)N1CCc2scc[n+]2-c2ccccc21	i	/	11	/	42	-4	3	4
CCOc1ccc(NC(=O)CCCn2c(=S)[nH]c3ccsc3c2=O)cc1	i	-7	-13	/	0	-9	-5	2
CC(=O)c1cccc(NC(=S)N2c3ccccc3CC2C)c1 (configuration not stated)	i	5	-11	-8	7	-3	3	3
CCn1c(=S)sc2c(=O)n(CC(=O)Nc3ccc(OC)cc3)c(C)nc21	i	5	3	-20	-2	-6	-6	-1
Cc1ccccc1C(=O)c1ccccc1C(=O)c1ccccc1	/	-10	/	-17	/	/	2	-1
CC(C)C(=O)c1cc2c(cc1NC(=O)Nc1cccc3ccccc13)OCCO2	i	/	-6	/	0	5	/	/
O=C(Cn1cnc2sc(-c3ccccc3)cc2c1=O)NCCc1ccccc1	i	/	0	-10	-8	-5	-1	0
CCOC(=O)N1CCN(CC(=O)c2ccc3c(c2)CCN3C(C)=O)CC1	i	-1	-14	6	0	-10	4	5
CCOc1ccccc1N1CCN(c2nc3ccccc3nc2C(C#N)C(=O)OC(C)C)CC1 (configuration not stated)	i	23	/	-10	/	/	-1	2
CCOCCCNC(=O)C(Cc1ccccc1)NS(=O)(=O)c1ccc2c(c1)c(=O)n(C)c(=O)n2C (configuration not stated)	i	-11	1	/	9	-4	-1	1
Cc1cc(C)c(S(=O)(=O)NCc2ccccn2)cc1C	i	-174	/	-19	-1	-4	8	-3
O=C(CN1CCN(S(=O)(=O)c2ccc(Cl)cc2)CC1)Nc1ccc2c(c1)CCC2	i	/	-1	8	-6	7	1	-9
O=C(Cc1coc2ccc3ccccc3c12)NCc1ccccc1	i	/	-5	0	2	-8	-2	-4
CC(=O)NCCc1nc2cc(NC(=O)COc3cccc(C)c3)ccc2n1C	i	-16	-17	-13	2	4	0	0
CCOC(=O)c1ccc(NC(=O)CN2CCN(c3ccccc3)CC2)cc1	i	/	1	0	-2	-5	-6	-4
COc1ccc2c(c1)c1c(n2C)[C@@H]2CC=C(CO)[C@@H](C1)N2C	/	-14	3	-4	/	/	0	3
C=CCn1c(SCC(=O)Nc2cccnc2Cl)nnc1-c1ccccc1F	i	-5	1	/	-11	-5	3	1
COc1ccc(CCn2c(=N)c(S(=O)(=O)c3ccccc3)cc3c(=O)n4ccccc4nc32)cc1	i	11	-2	-2	39	5	-57	-3
COc1cc(C(=O)Nc2ccc(C)cc2)c(-n2cnnn2)cc1OC	i	-4	-9	-8	-18	-3	-3	2
COc1cccc(CNC(=O)CCS(=O)(=O)c2cccs2)c1	i	-40	-10	-21	-4	2	7	8
CCN1C[C@@H]2[C@@H]3C(=O)N(C)C(=O)[C@@H]3[C@](C)(C(=O)OC)N2C1=NC	/	14	/	-20	/	/	5	6
Cn1nc(C(F)(F)F)c(C#N)c1N1CCN(c2cccc(C(F)(F)F)c2)CC1	i	/	43	/	-2	-1	-6	-6
N#Cc1c(N)nc2c(c1-c1ccco1)CCCCC2	i	22	/	-7	/	/	-8	-5
Cc1ccc(/C(N)=N/OC(=O)N2c3ccccc3Sc3ccccc32)cc1	i	-17	0	-6	/	/	-6	-4
O=C(COC(=O)c1cc(F)cc(F)c1)Nc1cccnc1Cl	i	9	-2	/	2	17	0	2
COc1ccc(NC(C)=O)cc1S(=O)(=O)NC(Cc1ccccc1)C(=O)O (configuration not stated)	i	1	-7	1	-1	13	2	3
O=C(CO/N=C/c1cccc([N+](=O)[O-])c1)Nc1ccc2ccccc2c1	i	-63	-17	-11	5	12	3	10

Two entries picked at random from those above:
Molecule	Rce1 inhib	HIV Env fusion	CSC inhib	Yeast UUG start	eIF4H inh	PABP FP inh	MT1-MMP act inh	MT1-MMP act inh RFP
CCOC(=O)N1CCN(CC(=O)c2ccc3c(c2)CCN3C(C)=O)CC1	i	-1	-14	6	0	-10	4	5
COc1ccc(NC(C)=O)cc1S(=O)(=O)NC(Cc1ccccc1)C(=O)O (configuration not stated)	i	1	-7	1	-1	13	2	3

(cont.)
Molecule	Rce1 inhib	HIV Env fusion	CSC inhib	Yeast UUG start	eIF4H inh	PABP FP inh	MT1-MMP act inh	MT1-MMP act inh RFP
Cc1cccc(NC(=S)NC(=O)Cc2ccccc2)c1C	i	-15	-10	-7	3	8	8	-3
NCCC1CCCC(CCN)N1 (configuration not stated)	/	5	-14	-15	/	/	1	0
CCSc1ccccc1C(=O)Nc1ccc(S(=O)(=O)NC(C)=O)cc1	i	1	-5	-5	-7	13	-1	2
O=[N+]([O-])c1cccc(S(=O)(=O)Nc2nc3ccccc3nc2Nc2cccc(S(=O)(=O)N3CCCCC3)c2)c1	i	72*	/	/	17	1	-30	-40
O=S(=O)(NCc1ccccc1)c1ccc(S(=O)(=O)N2CCCC2)cc1	i	-8	-10	/	-3	0	-10	-10
OC(CN1CCNCC1)Cn1c2ccccc2c2ccccc21 (configuration not stated)	i	-6	2	-8	15	9	1	-3
C[C@@H]1CC=C[C@H]2[C@H]1C(=O)N(Cc1ccccc1)[C@H]2c1ccc(/C=C/c2ccccc2)cc1F	i	-34	26	-9	-8	-15	-8	-10
CCOC(=O)CCCC(=O)N1CCOCCOCCN(C(=O)CCCC(=O)OCC)CCOCCOCC1	i	-2	5	-8	-2	-10	1	5
COc1cc(C(=O)OCC(C)=O)cc(NC(=O)c2ccco2)c1OC	/	-9	3	-4	2	-4	1	1
CCCC(=O)NCCCc1nc2ccccc2n1C	i	9	-4	-16	-6	1	3	1
CC(C)(C)NC(=O)c1cccc2c1C(=O)c1ccccc1-2	i	8	-9	-8	-2	5	-3	-6
CCc1ccc(CNC(=O)C2CCN(S(=O)(=O)N3CC(C)CC(C)C3)CC2)cc1 (configuration not stated)	i	2	-5	-14	-12	-4	-11	-14
O=C(OCc1cc(=O)n2ccsc2n1)C1(c2ccc(Cl)cc2)CC1	/	-49	7	0	/	/	-2	-1
O=c1ccn([C@@H]2O[C@H](CNCC3=Cc4cc(O)ccc4OC3)[C@@H](O)[C@H]2O)c(=O)[nH]1	/	29	/	-3	/	/	4	10
CCOc1ccc(NC(=O)Nc2ccc3c(c2)CCC3)cc1	i	-19	-4	-25	5	-3	1	4
O=C(NCCCCc1ccccc1)c1cccc(NC(=O)C2CC2)c1	/	-15	/	-17	/	/	2	-2
C=CCN(c1ccccc1)S(=O)(=O)c1cccc(C(=O)Oc2ccc3c(C)cc(=O)oc3c2)c1	i	-49	/	/	0	17	-5	3
CN(Cc1ccccc1)C(=O)c1ccc(NC(=O)Cc2ccc(NC(=O)C3CCN(C(=O)C4CCCC4)CC3)cc2)cc1	/	-17	/	-10	/	/	-4	-17
Cc1cc(NC(=O)CSc2nnc(-c3ccco3)o2)no1	i	/	-5	-2	5	22	2	2
O=C1c2ccccc2C(=O)N1CC(O)COc1ccc(Br)cc1 (configuration not stated)	i	8	3	-10	2	4	-4	-1
CC12CCC3C(C1)C(C(=O)O2)C(=O)OC3(C)C (configuration not stated)	/	-5	/	-16	/	/	0	5
CC(C)(C)NCc1cc(Br)ccc1OCc1cccs1	i	4	33	-7	-2	0	-2	-2

Among those listed so far, these contain a halogen.
Molecule	Rce1 inhib	HIV Env fusion	CSC inhib	Yeast UUG start	eIF4H inh	PABP FP inh	MT1-MMP act inh	MT1-MMP act inh RFP
COc1ccc(Br)cc1/C=N/n1c(COc2ccccc2)n[nH]c1=S	i	-17	/	-16	4	9	1	1
CC1(C)Cc2c(cnn2-c2ccc(F)cc2)C(NC(=O)CCn2cncn2)C1 (configuration not stated)	i	-54	1	0	-4	-5	-2	2
O=C(CNC(=O)c1ccc(Br)cc1)NCc1cccnc1	/	7	-15	-14	1	0	1	7
O=C(Nc1ccc(S(=O)(=O)Nc2cnc3ccccc3n2)cc1)c1ccc([N+](=O)[O-])cc1Cl	i	-26	-6	-15	-3	0	10	-7
COc1ccc(OC)c(S(=O)(=O)Nc2ccccc2F)c1	i	/	-2	-7	-8	-4	-5	5
O=S(=O)(c1cccc(NC(=S)N2CCN(c3ccc(F)cc3)CC2)c1)C(F)F	/	31	2	/	-4	-12	6	-7
O=C(CN1CCN(S(=O)(=O)c2ccc(Cl)cc2)CC1)Nc1ccc2c(c1)CCC2	i	/	-1	8	-6	7	1	-9
C=CCn1c(SCC(=O)Nc2cccnc2Cl)nnc1-c1ccccc1F	i	-5	1	/	-11	-5	3	1
Cn1nc(C(F)(F)F)c(C#N)c1N1CCN(c2cccc(C(F)(F)F)c2)CC1	i	/	43	/	-2	-1	-6	-6
O=C(COC(=O)c1cc(F)cc(F)c1)Nc1cccnc1Cl	i	9	-2	/	2	17	0	2
C[C@@H]1CC=C[C@H]2[C@H]1C(=O)N(Cc1ccccc1)[C@H]2c1ccc(/C=C/c2ccccc2)cc1F	i	-34	26	-9	-8	-15	-8	-10
O=C(OCc1cc(=O)n2ccsc2n1)C1(c2ccc(Cl)cc2)CC1	/	-49	7	0	/	/	-2	-1
O=C1c2ccccc2C(=O)N1CC(O)COc1ccc(Br)cc1 (configuration not stated)	i	8	3	-10	2	4	-4	-1
CC(C)(C)NCc1cc(Br)ccc1OCc1cccs1	i	4	33	-7	-2	0	-2	-2
